# Cruzain inh noDet: inhibitors of Trypanosoma cruzi cruzain without detergent; purified cruzain, Z-FR-AMC fluorescence, no detergent; P25779; 2.3% of 200,000 active; Potency, µM, inactives show max response, negative = inhibition, usual class: inhibitors; active = well fitted curve in the direction sought with a large enough effect; inconclusive = small, poorly fitted or top-dose-only effect, or another doubt; inactive = no such curve, though single readings can be large; an effect the other way counts as inactive or inconclusive;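 also: plate controls were enzyme without inhibitor for no effect and buffer without enzyme for full effect; nearly all actives have a fitted effect of over 40% in size; top concentration of the series not given in the record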
# Target sequence (P25779 123-467 limits assumed): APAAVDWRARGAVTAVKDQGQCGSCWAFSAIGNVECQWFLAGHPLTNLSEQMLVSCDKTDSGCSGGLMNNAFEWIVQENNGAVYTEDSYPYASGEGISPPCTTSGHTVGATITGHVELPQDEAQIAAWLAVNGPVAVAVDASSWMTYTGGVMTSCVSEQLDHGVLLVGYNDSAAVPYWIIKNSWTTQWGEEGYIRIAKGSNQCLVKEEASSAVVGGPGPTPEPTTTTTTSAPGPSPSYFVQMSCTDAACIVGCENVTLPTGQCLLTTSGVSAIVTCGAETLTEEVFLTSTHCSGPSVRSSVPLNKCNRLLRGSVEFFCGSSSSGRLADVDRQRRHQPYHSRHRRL
#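 Detergent-free condition (0.00005% Triton X-100) in acetate buffer pH 5.5 with DTT. 1.5 nM enzyme and compound were pre-mixed 15 min, then 2 uM Z-FR-AMC substrate added; reaction progress from fluorescence change between first and third reads (60 s).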
# Lassa entry inh: Lassa virus entry inhibition; 1.2% of 300,000 active; Lassa virus pseudotype entry inhibition, cell reporter; control for the full effect not named in the record; Potency, µM (series often up to 37.9 µM), for the others: at the top dose activity change, negative = inhibition, hits mostly inhibitors; AID 540256; active means well fitted inhibition curve with a large enough effect; inconclusive means small, poorly fitted or top-dose-only effect, or effect the other way; inactive means flat fitted curve, though single readings scatter; tested in HEK293 cells; also: % is scaled to controls: 0 for no effect and ±100 for the full control effect; nearly all actives have a fitted effect of over 50% in size; luciferase read-out
# NS1 inh: blocks influenza NS1 protein function; Potency, µM (top dose mostly 46.1 µM), for the others: top-dose activity, positive = more growth; AID 2326; S. cerevisiae slowed by influenza A NS1, growth recovery by OD600; 0.4% of 270,000 active; also: actives are rising curves; nearly all actives have a fitted effect of over 50% in size
#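 OD600 was taken as the measure of yeast growth restored by compound in an NS1-expressing S. cerevisiae strain. Cells had been washed out of glucose medium and diluted 1:100 into galactose -URA medium, pH 6.0.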
# SARS PLP yeast: blocks SARS-CoV papain-like protease in a yeast assay. S. cerevisiae expressing SARS-CoV PLpro, growth rescue; control for the full effect not named in the record. Potency, µM (titrated, usually from 32.9 µM), for inactives: at the top dose activity, positive = growth rescue. 0.19% of 330,000 active. AID 485353; also: 0% is about no effect; nearly all actives have a fitted effect of over 55% in size; growth read by luminescence after 48 h
# StopGo reporter: lowers the luciferase signal of an FMDV 2A StopGo reporter. human cells with a luciferase reporter of 2A StopGo recoding; control for the full effect not named in the record. Potency, µM (top dose mostly 57.9 µM), without a hit: at the highest dose signal change, negative = less light. 1.2% of 410,000 active; active = well fitted falling curve with a large enough effect; inconclusive = small, poorly fitted or top-dose-only effect; inactive = no such curve, though single readings can be large or run the other way; tested in HEK293T cells; also: % is scaled to controls: 0 for no effect and ±100 for the full control effect; nearly all actives have a fitted effect of over 45% in size; luciferase light after 4 h
# RE007 growth inh: less growth of the S. pombe RE007 Vpr strain; S. pombe RE007 Vpr strain, BacTiter-Glo ATP luminescence, 24 h; control for the full effect not named in the record; Potency, µM (titrated, usually from 92.2 µM), inactives show top-dose activity change, negative = less growth; 0.21% of 360,000 active; active = well fitted falling curve with a large enough effect; inconclusive = small, poorly fitted or top-dose-only effect; inactive = no such curve, though single readings can be large or run the other way;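 also: % is scaled to controls: 0 for no effect and ±100 for the full control effect; nearly all actives have a fitted effect of over 50% in size; the assay follows cell death caused by Vpr and the record does not say whether a fall means rescue or toxicity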
#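 Fission yeast RE007 carrying one integrated HIV-1 vpr copy, seeded at OD 0.01 in PMG+AL medium with 23 nL pinned compound. Grown 24 h at 30 degrees; viability read by BacTiter-Glo luminescence after 5 min.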
# Marburg entry inh: blocks Marburg virus binding to or entry into cells | Marburg virus pseudotyped entry inhibition, cell reporter; control for the full effect not named in the record; about a third of the inactives were read at about 46 µM | 1.8% of 300,000 active | AID 540276 | Potency, µM (doses to about 37.8 µM), for the others: top-dose activity change, negative = inhibition, hits mostly inhibitors; active = well fitted inhibition curve with a large enough effect; inconclusive = small, poorly fitted or top-dose-only effect, or effect the other way; inactive = flat fitted curve, though single readings scatter; tested in HEK293 cells; about a fifth of its hits are not listed in these tables; also: % is scaled to controls: 0 for no effect and ±100 for the full control effect; luciferase read-out
# Cruzain inh Det: inhibitors of Trypanosoma cruzi cruzain with detergent; AID 1478; purified cruzain, Z-FR-AMC fluorescence, 0.01% Triton; 0.43% of 200,000 active; Potency, µM, for the others: max response, negative = inhibition, actives largely listed as inhibitors; active = well fitted curve in the direction sought with a large enough effect; inconclusive = small, poorly fitted or top-dose-only effect, or another doubt; inactive = no such curve, though single readings can be large; an effect the other way counts as inactive or inconclusive;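 also: plate controls were neutral wells for no effect and buffer without enzyme for full effect; nearly all actives have a fitted effect of over 40% in size; top concentration of the series not given in the record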
#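 Sodium acetate buffer (100 mM, pH 5.5) containing 5 mM DTT and 0.01% Triton X-100 hosted 1.5 nM cruzain and test compound for 15 min at room temperature. Cleavage of 2 uM Z-FR-AMC was then tracked by fluorescence.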
# * hit, by the source's call; ? = inconclusive; / = not tested or not shown; & = joins results of further samples; [ ] = remark or other dose. Unless noted, calls follow the shape of the dose curve; as a rule, active means well fitted rising curve with a large enough effect; inconclusive means small, poorly fitted or top-dose-only effect; inactive means no such curve, though single readings can be large or run the other way. Potency is read from the fitted curve at half-maximal effect.
SMILES,Cruzain inh noDet,Lassa entry inh,NS1 inh,SARS PLP yeast,StopGo reporter,RE007 growth inh,Marburg entry inh,Cruzain inh Det
COC(=O)C(C(=O)OC)C(c1ccccc1)C(C(=O)c1ccccc1)[N+](=O)[O-] (stereo not given),/,-4%[46.1 µM],-3%,0%,1%,11%,0%[46.1 µM],/
O=C(NCc1ccc(F)cc1)C(=O)Nc1ccc2nc3n(c(=O)c2c1)CCCCC3,5%,-1%[46.1 µM],/,/,-11%,/,21%[46.1 µM],0.4%
CN(Cc1ccc(F)cc1)C(=O)c1ccc(NS(=O)(=O)c2ccc3[nH]c(=O)[nH]c3c2)cc1,/,12%,/,3%,-1%,-19%,21%,/
Cc1ccc(C2=NNC(C(O)C(O)C(O)CO)S2)cc1 (stereo not given),3%,7%,5%,1%,45%[activator],-12%,4%,0.3%
O=C(c1ccccc1)c1ccc2nc(N3CCN(c4ccc(F)cc4)CC3)c3nncn3c2c1,?,?,/,/,-15%,/,2%[46.1 µM],-0.7%
O=C(CCC1CCCN(C(=O)c2ccco2)C1)NCc1ccccc1F (stereo not given),/,?,3%,0%,-2%,-8%,0%[46.1 µM],/
Cc1ccc(OCCN2C(=O)S/C(=C\c3ccc(C)o3)C2=O)cc1,0%,-1%,-1%,-23%,-25%,-10%,-10%,-5.2%
CC(/C=C1\SC(=S)N(CC(=O)O)C1=O)=C\c1ccccc1,/,/,2%,1%,40%[activator],11%,/,/
CN(C)c1nc(N(C)C)c2cnn(C)c2n1,/,-15%,/,/,-6%,-4%,9%,/
COc1ccc(NC2=C(c3ccccc3)C(=O)c3ccccc32)cc1Cl,6%,-9%[46.1 µM],/,/,-9%,/,-13%[46.1 µM],4.9%
CCC1Sc2ccc(S(=O)(=O)CCC(=O)Nc3cccc(Br)c3)cc2NC1=O (stereo not given),/,/,-6%,-4%,?,4%,/,/
CCN(CC)c1ccc(NC(=O)c2ccc(=O)[nH]c2)cc1S(=O)(=O)Nc1ccccc1OC,/,-29%[46.1 µM],/,-2%,20%,-28%,?,/

# Next part; it opens with the four that closed the last part.
SMILES,Cruzain inh noDet,Lassa entry inh,NS1 inh,SARS PLP yeast,StopGo reporter,RE007 growth inh,Marburg entry inh,Cruzain inh Det
CN(C)c1nc(N(C)C)c2cnn(C)c2n1,/,-15%,/,/,-6%,-4%,9%,/
COc1ccc(NC2=C(c3ccccc3)C(=O)c3ccccc32)cc1Cl,6%,-9%[46.1 µM],/,/,-9%,/,-13%[46.1 µM],4.9%
CCC1Sc2ccc(S(=O)(=O)CCC(=O)Nc3cccc(Br)c3)cc2NC1=O (stereo not given),/,/,-6%,-4%,?,4%,/,/
CCN(CC)c1ccc(NC(=O)c2ccc(=O)[nH]c2)cc1S(=O)(=O)Nc1ccccc1OC,/,-29%[46.1 µM],/,-2%,20%,-28%,?,/
O=C(Nc1c2c(nn1-c1ccc(F)cc1)CSC2)c1ccc(S(=O)(=O)N2CCOCC2)cc1,0%,-2%,-7%,2%,1%,12%,-7%&21%,0.3%
CCOc1ccc(CCNC(=O)c2ccc3ccccc3n2)cc1OCC,/,/,-33%,-1%,5%,-17%,/,/
O=C(NC12CC3CC(CC(C3)C1)C2)c1cnccn1,-3%,11%,?,6%,6%,16%,?,1.7%
Cc1ccc(OCCCCn2cnc3ccccc32)c(C)c1,5%,?,-76%,?,-14%,36%[3.69 µM],?,-4.2%
COc1ccc(Cn2ccnc2SCC(=O)Nc2ccc3c(c2)OCO3)cc1,-3%,-1%[46.1 µM],/,/,6%,/,/,-2.4%
O=C(CN1CCC(NC(=O)c2ccccc2Cl)CC1)NCc1ccccc1,/,-10%,7%,2%,16%,9%,5%[46.1 µM],/
COc1ccc(N(CC(=O)N2CCN(C)CC2)S(=O)(=O)c2ccccc2)cc1,/,-4%,15%,1%,-1%,-26%,9%[46.1 µM],/
COc1ccc(Nc2nnc(SCc3cn4c(C)cccc4n3)s2)cc1,4%,?,-10%,-4%,-16%,-14%,?,-3.7%
CC(C)CCNC(=O)C(=O)Nc1cc2c3c(c1)CCC(=O)N3CCC2,/,-5%[46.1 µM],-9%,-7%,-14%,14%,16%[46.1 µM],/
O=CN1CCN(C(=O)c2ccccc2F)CC1,3%,0%,0%,0%,-2%,-3%,0%,7.2%
CCc1ccccc1NS(=O)(=O)c1ccc2c(c1)CCCN2C(=O)C1CCC1,-12%,4%[46.1 µM],/,/,-28%,/,/,-4.3%
CCc1nc2n[nH]c(N)c2c2c1CCCC2,3%,3%,-10%,2%,0%,11%,7%,-4.9%

# Complete entries as entered above.
# Listed for O=C(Nc1c2c(nn1-c1ccc(F)cc1)CSC2)c1ccc(S(=O)(=O)N2CCOCC2)cc1 = Cruzain inh noDet: 0%; Lassa entry inh: -2%; NS1 inh: -7%; SARS PLP yeast: 2%; StopGo reporter: 1%; RE007 growth inh: 12%; Marburg entry inh: -7%&21%; Cruzain inh Det: 0.3%
# Listed for O=C(NC12CC3CC(CC(C3)C1)C2)c1cnccn1 = Cruzain inh noDet: -3%; Lassa entry inh: 11%; NS1 inh: ?; SARS PLP yeast: 6%; StopGo reporter: 6%; RE007 growth inh: 16%; Marburg entry inh: ?; Cruzain inh Det: 1.7%
# Listed for COc1ccc(Nc2nnc(SCc3cn4c(C)cccc4n3)s2)cc1 = Cruzain inh noDet: 4%; Lassa entry inh: ?; NS1 inh: -10%; SARS PLP yeast: -4%; StopGo reporter: -16%; RE007 growth inh: -14%; Marburg entry inh: ?; Cruzain inh Det: -3.7%

# Going on with the list:
SMILES,Cruzain inh noDet,Lassa entry inh,NS1 inh,SARS PLP yeast,StopGo reporter,RE007 growth inh,Marburg entry inh,Cruzain inh Det
CCOc1ccc(N(CC(=O)NCc2ccc(Cl)cc2)S(=O)(=O)c2ccccc2)cc1,/,?,-1%,-1%,-14%,2%,?,/
CCC(=O)c1ccc(N2CCCCCC2)c(F)c1,-1%,?,-67%,4%,45%[activator],-9%,17%,0.3%
COc1ccccc1N1CCN(Cc2ccc(C(=O)O)cc2)CC1,/,-8%[46.1 µM],-9%,0%,9%,0%,?,/
Cc1nn(C)c(C)c1S(=O)(=O)N(CC(=O)Nc1ccccn1)c1ccc(C(C)C)cc1,14%,/,-55%,3%,0%,9%,/,-2.7%
CC1=C(C(N)=O)C(c2cccc(F)c2)n2nc(SCc3ccccc3)nc2N1 (stereo not given),?,-10%[46.1 µM],/,/,-15%,/,/,0.4%
N=c1oc2ccccc2cc1C(=O)NC1CCCCCC1,/,/,12%,2%,-21%,13%,/,/
c1ccc2nc(-c3ccc(-n4ccnc4)cc3)ccc2c1,/,/,-53%,-6%,-4%,-19%,/,/
O=C(CSc1nc2nn(-c3ccccc3)c(=O)c-2c2n1CCCCC2)Nc1ccc(F)c(F)c1,/,1%[46.1 µM],/,-4%,-22%,-6%,5%[46.1 µM],/
CCCN(CCC)C(=S)NC(=O)c1ccc(Cl)cc1Cl,-15%,-16%[14.3 µM],-43%,-1%,?,-33%,-14%,1.5%
Cn1cc([N+](=O)[O-])c(C(=O)Nc2cc(Oc3cccnc3)cc([N+](=O)[O-])c2)n1,7%,-21%,18%,5%,?,-7%,-30%[46.1 µM],-1.8%
OC(CC#CCN1CCCCCC1)(c1ccccc1)C1CCCC1 (stereo not given),/,/,-6%,2%,-22%,11%,/,/
CCOc1ccc(CN2CCN(S(=O)(=O)c3ccc(NC(C)=O)cc3)CC2)cc1,/,?,/,1%,?,-1%,2%[46.1 µM],/
Cc1noc(-c2ccccc2OC(=O)c2ccccc2)n1,-4%,3%,-101%,-6%,-16%,-14%,14%,-2.5%
Fc1ccc(Sc2nc(-c3ccccc3)nnc2C(F)(F)F)cc1,7%,-19%,1%,-1%,-19%,-17%,?,-3.1%
CCN(CC)S(=O)(=O)c1ccc(N/N=C(\C)c2ccncc2)c([N+](=O)[O-])c1,/,?,8%,-1%,-2%,5%,2%[46.1 µM],/
O=C(NCc1cccnc1)c1cnn2ccccc12,-11%,/,-6%,6%,-1%,-7%,-3%,6.2%
COc1ccc(/C=C(/NC(=O)c2ccccc2)C(=O)N/N=C/c2cccs2)cc1OC,?,-14%,13%,2%,-2%,2%,-5%,-11%
COc1nc(Cl)cn(-c2ccc(Cl)cc2)c1=O,-5%,3%,-6%,-7%,-17%,-5%,0%,-6.2%
O=C(N/N=C/c1cccc([N+](=O)[O-])c1)c1ccc(CN2CCOCC2)cc1,-12%,0%,1%,10%,?,-19%,?,-1.4%
O=C(CCC1CCCC1)Nc1cccn(Cc2ccccc2Br)c1=O,/,/,-1%,-1%,0%,-9%,/,/
COc1cccc(C2=CC(c3cccs3)n3nnnc3N2)c1 (stereo not given),-1%,?,-4%,15%,5%,0%,?,-17%
COc1ccccc1CNC(=O)CCCn1c(=O)c2ccccc2n(CC(=O)Nc2ccc(C)cc2Cl)c1=O,-2%,-29%[46.1 µM],/,/,-28%,/,0%[46.1 µM],-0.5%
Cc1ccc(-c2nn(-c3cccc(F)c3)cc2CN2CCN(c3ccccn3)CC2)o1,/,/,5%,-1%,-21%,-7%,/,/
Cc1ccc(CNC(=O)C2CCCN(S(=O)(=O)c3ccc4c(c3)oc(=O)n4C)C2)cc1 (stereo not given),?,1%[46.1 µM],/,/,0%,/,7%[46.1 µM],-1.0%
COc1ccccc1N1CCN(c2ncc3c(n2)CCN(Cc2ccc(C)s2)C3)CC1,-4%,14%[46.1 µM],/,/,?,/,/,0.0%

# Screening results (PubChem BioAssay)
